Screens from PubChem BioAssay.
Env fusion inh: inhibitors of HIV-1 Env-driven cell-cell fusion, primary screen, HeLa-JRFL effector, CEM21 target cells, luciferase; inhibition, % at 12.3 µM; 360,000 compounds, 1.1% hits; AID 651610, 2012;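 active = mean replicate inhibition score of at least 50 and every replicate individually at or above 50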;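 also: 0% = plate neutral controls and 100% = maraviroc near 300 nM; one replicate is shown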
UUG fidelity: modulators of yeast start codon fidelity, primary screen, whole organism, S. cerevisiae, single point, plate reader; 350,000 compounds, 0.13% hits; S. cerevisiae UUG-firefly luciferase reporter, luminescence/redox ratio; AID 602363, 2012; activity score, % at 18.7 µM;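 active = replicate mean at a twofold rise or more, about +100% in these data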;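 also: firefly luciferase made from a UUG start codon reports start codon fidelity; reporter light over untreated wells divided by growth signal over untreated wells; some hits fall short of that in this replicate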
An asterisk follows results filed as active; & = joins results of further samples; [ ] = another dose, or the depositor's remark.

UUG fidelity | Env fusion inh | molecule
12 | -32[16.7 µM] | Cc1noc(C)c1NC(=O)Nc1cccc2c1O[C@@H](CN(C)C(=O)Nc1c(C)noc1C)[C@@H](C)CN([C@H](C)CO)C2=O
2&-7 | 5[16.7 µM] | C[C@H](CO)N1C[C@H](C)[C@@H](CN(C)C(=O)Nc2ccccc2)OCc2cnnn2CCCC1=O
-4 | 7[16.7 µM] | C[C@@H]1CCCCO[C@H](CN(C)C(=O)Cc2ccccc2)[C@H](C)CN([C@H](C)CO)C(=O)c2cc(NS(=O)(=O)c3cn(C)cn3)ccc2O1
-5 | -47[16.7 µM] | COc1ccc(S(=O)(=O)Nc2ccc3c(c2)C(=O)N([C@H](C)CO)C[C@H](C)[C@@H](CN(C)Cc2ccc4c(c2)OCO4)OCCCC[C@@H](C)O3)cc1
8 | 7[16.7 µM] | C[C@@H]1CN([C@H](C)CO)S(=O)(=O)c2ccc(C#Cc3ccccn3)cc2O[C@H]1CN(C)Cc1cccc(F)c1
1 | -9[16.7 µM] | C[C@@H](NC(=O)C[C@@H]1C[C@H]2c3cc(NS(C)(=O)=O)ccc3O[C@H]2[C@H](CO)O1)c1ccccc1
24 | -2[16.7 µM] | CO[C@H]1CN(C)C(=O)c2ccc(NC(=O)Nc3c(C)noc3C)cc2OC[C@@H](C)N(C)C[C@H]1C
-6 | -47[16.7 µM] | CC(C)NC(=O)Nc1ccc2c(c1)C(=O)N([C@@H](C)CO)C[C@H](C)[C@@H](CN(C)C(=O)Nc1ccc(F)cc1)OCCCC[C@@H](C)O2
-5 | -11[16.7 µM] | C[C@@H]1CCCCO[C@H](CN(C)C(=O)Nc2cccc3ccccc23)[C@H](C)CN([C@@H](C)CO)C(=O)c2cc(NS(=O)(=O)c3ccc(Cl)cc3)ccc2O1
39 | -13[16.7 µM] | C[C@H]1CN([C@@H](C)CO)C(=O)c2cc(NS(=O)(=O)c3cccs3)ccc2O[C@H]1CN(C)Cc1ccc(C(F)(F)F)cc1
-3 | 0[16.7 µM] | Cc1noc(C)c1NC(=O)N(C)C[C@H]1Oc2ccc(NC(=O)Cc3ccccc3)cc2CC(=O)N([C@H](C)CO)C[C@@H]1C
31 | -9[16.7 µM] | C[C@@H]1CCCCO[C@H](CN(C)C(=O)Cc2ccccc2)[C@H](C)CN([C@H](C)CO)C(=O)c2cc(NS(=O)(=O)c3ccccc3)ccc2O1
0 | -17[16.7 µM] | C[C@H](CO)N1C[C@H](C)[C@@H](CN(C)S(=O)(=O)c2cccs2)Oc2ccc(NC(=O)Nc3ccccc3)cc2CC1=O
5 | -30[16.7 µM] | C[C@@H]1CCCCO[C@H](CN(C)C(=O)Nc2ccc3c(c2)OCO3)[C@H](C)CN([C@@H](C)CO)C(=O)c2cc(NS(C)(=O)=O)ccc2O1
2 | 13[16.7 µM] | CCC(=O)N(C)C[C@@H]1Oc2cc(C#C[C@H](C)O)ccc2S(=O)(=O)N([C@@H](C)CO)C[C@@H]1C
-7 | -10[16.7 µM] | O=C(C[C@H]1C=C[C@H](NC(=O)Nc2ccc(C(F)(F)F)cc2)[C@@H](CO)O1)NCCN1CCCC1
5 | -19[16.7 µM] | C[C@H](O)C#Cc1ccc2c(c1)O[C@@H](CN(C)CC1CCCC1)[C@H](C)CN([C@H](C)CO)S2(=O)=O
1 | -8[16.7 µM] | C[C@H]1CN([C@@H](C)CO)S(=O)(=O)c2ccc(C#CC3CC3)cc2O[C@@H]1CN(C)C(=O)C1CCCCC1
18 | -13[16.7 µM] | Cc1ccc(S(=O)(=O)Nc2ccc3c(c2)C(=O)N([C@@H](C)CO)C[C@@H](C)[C@@H](CN(C)Cc2ccccc2)OCCCC[C@H](C)O3)cc1
-5 | -26[16.7 µM] | Cc1ccc(S(=O)(=O)Nc2ccc3c(c2)C(=O)N([C@H](C)CO)C[C@@H](C)[C@@H](CN(C)Cc2ccc(C(=O)O)cc2)O3)cc1
-7 | 0[16.7 µM] | Cc1noc(C)c1NC(=O)N(C)C[C@H]1Oc2ccc(NS(=O)(=O)c3c(C)noc3C)cc2CC(=O)N([C@H](C)CO)C[C@@H]1C
-10 | -42[16.7 µM] | COc1ccc(S(=O)(=O)Nc2ccc3c(c2)C(=O)N([C@@H](C)CO)C[C@H](C)[C@H](CN(C)S(=O)(=O)c2ccc(OC)cc2)OCCCC[C@@H](C)O3)cc1
7 | -12[16.7 µM] | C[C@H]1CN([C@@H](C)CO)C(=O)c2cc(NS(=O)(=O)c3ccc(F)cc3)ccc2O[C@@H]1CN(C)S(=O)(=O)c1ccc(Cl)cc1
-16 | 9[16.7 µM] | N#C[C@@H]1[C@@H](c2ccc(-c3ccc(F)cc3)cc2)[C@H](CO)N1c1nc(-c2ccccc2)cs1
-1 | -36[16.7 µM] | C[C@@H]1CN([C@@H](C)CO)C(=O)c2cccc(NC(=O)c3cnccn3)c2O[C@H]1CN(C)Cc1ccc(C(=O)O)cc1
-9 | -19[16.7 µM] | COc1ccc(S(=O)(=O)Nc2cccc3c2O[C@@H](CN(C)S(=O)(=O)c2ccc(C)cc2)[C@@H](C)CN([C@@H](C)CO)C3=O)cc1
3 | 14[16.7 µM] | CNC[C@@H]1OCCCC[C@@H](C)Oc2ccc(NC(=O)C3CCCCC3)cc2C(=O)N([C@H](C)CO)C[C@@H]1C
-6 | -92[16.7 µM] | C[C@@H]1CCCCO[C@H](CN(C)S(=O)(=O)c2ccc(F)cc2)[C@H](C)CN([C@@H](C)CO)C(=O)c2cc(NS(=O)(=O)c3ccc(F)cc3)ccc2O1
-10 | -36[16.7 µM] | C[C@@H]1CCCCO[C@H](CN(C)S(=O)(=O)c2ccc(F)cc2)[C@@H](C)CN([C@@H](C)CO)C(=O)c2cc(NC(=O)Nc3cccc4ccccc34)ccc2O1
5 | -20[16.7 µM] | Cc1noc(C)c1S(=O)(=O)Nc1ccc2c(c1)C(=O)N([C@@H](C)CO)C[C@H](C)[C@@H](CN(C)S(C)(=O)=O)O2
7 | 21[16.7 µM] | C[C@@H]1CN([C@@H](C)CO)C(=O)c2cc(NC(=O)Cn3cnnn3)ccc2O[C@@H]1CN(C)CC1CCCCC1
7 | -10[16.7 µM] | C[C@H](CO)N1C[C@H](C)[C@H](CN(C)C(=O)c2ccccc2F)Oc2ncc(-c3ccccc3)cc2C1=O
5 | -2[16.7 µM] | C[C@H]1CN([C@@H](C)CO)C(=O)c2cc(-c3cncnc3)cnc2O[C@@H]1CN(C)C(=O)c1ccccc1F
2 | 20[16.7 µM] | CO[C@@H]1CN(C)C(=O)c2ccc(NS(=O)(=O)c3cccc(C)c3)cc2OC[C@@H](C)N(Cc2cc(F)ccc2F)C[C@H]1C
-3 | -12[16.7 µM] | C[C@H]1CN([C@@H](C)CO)C(=O)Cc2cc(NC(=O)Cn3cnnn3)ccc2O[C@@H]1CN(C)S(=O)(=O)c1ccccc1
10 | -2[16.7 µM] | Cc1noc(C)c1S(=O)(=O)N(C)C[C@@H]1Oc2ccc(NS(=O)(=O)c3ccccc3)cc2C(=O)N([C@@H](C)CO)C[C@@H]1C
-2 | -45[16.7 µM] | CCC(=O)N1C[C@H](O)COC[C@@H]2O[C@H](CC(=O)N3CCCCC3)CC[C@H]21
-11 | -7[16.7 µM] | C[C@@H]1CN([C@@H](C)CO)C(=O)Cc2cc(NS(=O)(=O)c3ccc(F)cc3)ccc2O[C@@H]1CN(C)Cc1ccc(C(=O)O)cc1
-12 | 1[16.7 µM] | O=C(C[C@H]1C[C@H]2c3cc(NC(=O)NC4CCCCC4)ccc3O[C@H]2[C@@H](CO)O1)NCc1cccnc1
-10 | 27[16.7 µM] | Cc1noc(C)c1NC(=O)N(C)C[C@@H]1OCCCC[C@@H](C)Oc2ccc(NC(=O)c3ccccc3)cc2C(=O)N([C@H](C)CO)C[C@@H]1C
1 | 8[16.7 µM] | CNC[C@H]1OCCCC[C@H](C)Oc2ccc(NC(=O)NC3CCCCC3)cc2C(=O)N([C@@H](C)CO)C[C@@H]1C
-4 | 16[16.7 µM] | C[C@@H]1CN([C@@H](C)CO)C(=O)c2cccc(NS(=O)(=O)c3ccc(Cl)cc3)c2O[C@H]1CN(C)S(=O)(=O)c1cn(C)cn1
-10 | 1[16.7 µM] | C[C@H]1CCCCO[C@@H](CN(C)Cc2ccncc2)[C@@H](C)CN([C@@H](C)CO)C(=O)c2cc(N(C)C)ccc2O1
1 | 4[16.7 µM] | C[C@@H]1CN([C@@H](C)CO)C(=O)c2cc(NC(=O)CCCN(C)C)ccc2O[C@H]1CN(C)Cc1ccc(Cl)c(Cl)c1
-3 | -5[16.7 µM] | Cc1noc(C)c1NC(=O)Nc1ccc2c(c1)C(=O)N([C@@H](C)CO)C[C@@H](C)[C@@H](CN(C)Cc1ccccc1)O2
2 | -8[16.7 µM] | CC(C)NC(=O)N(C)C[C@@H]1Oc2ccc(NC(=O)C3CC3)cc2C(=O)N([C@H](C)CO)C[C@H]1C
11 | -14[16.7 µM] | Cc1ccc(S(=O)(=O)Nc2ccc3c(c2)C(=O)N([C@@H](C)CO)C[C@@H](C)[C@@H](CN(C)C(=O)Nc2ccc4c(c2)OCO4)OCCCC[C@H](C)O3)cc1
3 | 8[16.7 µM] | C[C@H]1CN([C@@H](C)CO)C(=O)c2cc(C3=CCCC3)cnc2O[C@H]1CN(C)C(=O)Nc1ccc(C(F)(F)F)cc1
4 | 4[16.7 µM] | COc1ccccc1-c1cn(CC[C@@H]2CC[C@@H](NC(=O)C3CCCCC3)[C@H](CO)O2)nn1
29 | -3[16.7 µM] | Cc1noc(C)c1NC(=O)N(C)C[C@H]1OCCCC[C@@H](C)Oc2ccc(NC(=O)NC(C)C)cc2C(=O)N([C@@H](C)CO)C[C@H]1C
-9 | 8[16.7 µM] | C[C@@H]1CN([C@H](C)CO)C(=O)c2cc(C#Cc3cccnc3)cnc2O[C@@H]1CN(C)C(=O)CN(C)C
14 | -15[16.7 µM] | O=S(=O)(NCC[C@@H]1CC[C@H](NS(=O)(=O)c2cccc(Cl)c2)[C@@H](CO)O1)c1cccc(F)c1
-8 | -6[16.7 µM] | CCCC(=O)Nc1ccc2c(c1)OC[C@H](C)N(CC1CCCC1)C[C@H](C)[C@H](OC)CN(C)C2=O
1 | 17[16.7 µM] | COc1ccc(NC(=O)N(C)C[C@@H]2Oc3ccc(NC(=O)Cc4cn(C)c5ccccc45)cc3CC(=O)N([C@H](C)CO)C[C@@H]2C)cc1
18 | -5[16.7 µM] | O=S(=O)(N[C@H]1CC[C@@H](CCn2cc(-c3ccc(F)cc3)nn2)O[C@H]1CO)c1ccccc1F
-12 | -11[16.7 µM] | COc1cccc(-c2ccc3c(c2)O[C@H](CN(C)Cc2cccnc2)[C@@H](C)CN([C@@H](C)CO)S3(=O)=O)c1
-3 | 21[16.7 µM] | C[C@H]1CCCCO[C@H](CN(C)C(=O)CCC(F)(F)F)[C@@H](C)CN([C@@H](C)CO)C(=O)c2cc(NC(=O)Nc3ccc4c(c3)OCO4)ccc2O1
-5 | 4[16.7 µM] | O=C(N[C@H]1CC[C@@H](CC(=O)N2CCc3ccccc3C2)O[C@@H]1CO)C1CCC1
16 | -3[16.7 µM] | C[C@H](CO)N1C[C@H](C)[C@@H](CN(C)C(=O)CN(C)C)Oc2ncc(C#Cc3ccccc3)cc2C1=O
-13 | 2[16.7 µM] | O=C(C[C@@H]1CC[C@@H](NC(=O)CN2CCOCC2)[C@H](CO)O1)NC1CCC1

Compound profiles, from the list above.
Profile of CO[C@@H]1CN(C)C(=O)c2ccc(NS(=O)(=O)c3cccc(C)c3)cc2OC[C@@H](C)N(Cc2cc(F)ccc2F)C[C@H]1C : UUG fidelity = 2; Env fusion inh = 20[16.7 µM]
Profile of CNC[C@H]1OCCCC[C@H](C)Oc2ccc(NC(=O)NC3CCCCC3)cc2C(=O)N([C@@H](C)CO)C[C@@H]1C : UUG fidelity = 1; Env fusion inh = 8[16.7 µM]

Other results follow:
UUG fidelity | Env fusion inh | molecule
9 | -16[16.7 µM] | O=C(NCc1ccc(F)cc1)[C@H]1C[C@H]2C(=O)NCC(=O)N2[C@H]1c1cccc(OCCO)c1
18 | 14[16.7 µM] | Cc1ccc(S(=O)(=O)N2C[C@H](O)COC[C@H]3O[C@@H](CC(=O)N4CCc5ccccc5C4)CC[C@@H]32)cc1
20 | -21[16.7 µM] | COc1ccc(S(=O)(=O)N[C@@H]2C=C[C@H](CC(=O)NCc3ccccc3F)O[C@H]2CO)cc1
20 | -2[16.7 µM] | C[C@@H]1CN([C@H](C)CO)C(=O)c2cc(-c3ccccc3F)cnc2O[C@H]1CN(C)C(=O)C1CCOCC1
4 | 10[16.7 µM] | C[C@@H]1CN([C@@H](C)CO)S(=O)(=O)c2ccc(C#CC3CC3)cc2O[C@@H]1CN(C)Cc1cccnc1
40 | -8[16.7 µM] | CCCNC(=O)N(C)C[C@H]1Oc2ncc(C3=CCCCC3)cc2C(=O)N([C@H](C)CO)C[C@@H]1C
-1 | 10[16.7 µM] | Cc1ccc(S(=O)(=O)N[C@@H]2CC[C@@H](CC(=O)O)O[C@H]2CO)cc1
1 | -2[16.7 µM] | C[C@@H]1CN([C@H](C)CO)C(=O)c2cc(NS(=O)(=O)c3cn(C)cn3)ccc2O[C@H]1CN(C)Cc1ccc(C(F)(F)F)cc1

Entries from the list above that have a thiophene ring, fused or not, in the order listed:
UUG fidelity | Env fusion inh | molecule
39 | -13[16.7 µM] | C[C@H]1CN([C@@H](C)CO)C(=O)c2cc(NS(=O)(=O)c3cccs3)ccc2O[C@H]1CN(C)Cc1ccc(C(F)(F)F)cc1
0 | -17[16.7 µM] | C[C@H](CO)N1C[C@H](C)[C@@H](CN(C)S(=O)(=O)c2cccs2)Oc2ccc(NC(=O)Nc3ccccc3)cc2CC1=O

The list is partial; the hit share may differ from the screen's.
